Source: PubChem BioAssay
NOMO-1 viab – STK33 inhibitor candidate reducing NOMO-1 cell viability. NOMO-1 AML viability, CellTiter-Glo luminescence, 72 h. inhibition, % (test concentration not listed). hit rate 7.5% among 37,000. AID 2330;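 active = most replicates above 80%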;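 note: wells of about 30 µL received 25 nL stock; 0% = median of vehicle wells and 100% = reference inhibitor level; the first replicate is given; inactives centre near 10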
Numbers without * were called inactive.

SMILES	NOMO-1 viab
O=C(CSc1nnc(-c2ccccc2)n1-c1ccccc1)Nc1ccccc1C(F)(F)F	25
C[C@@H]1CN([C@H](C)CO)C(=O)c2cccc(NC(=O)Nc3ccc(F)cc3)c2O[C@H]1CN(C)Cc1ccc(C(=O)Nc2ccccc2N)cc1	127*
COc1cc(OC)c(C2=NOC(C(=O)Nc3cnn(C45CC6CC(CC(C6)C4)C5)c3)C2)cc1Cl (configuration not stated)	26
COc1ccc(C(=O)NCCCSc2nc(C(C)(C)C)cc(C(F)(F)F)n2)cc1	16
C[C@H](CO)N1C[C@H](C)[C@H](CN(C)C(=O)NC2CCCCC2)Oc2c(NC(=O)C3CC3)cccc2C1=O	-4
Cc1noc(C)c1NC(=O)Nc1ccc2c(c1)CC(=O)N([C@H](C)CO)C[C@@H](C)[C@H](CN(C)Cc1ccc3c(c1)OCO3)O2	15
C[C@@H]1CN([C@H](C)CO)C(=O)Cc2cc(NS(=O)(=O)c3cccs3)ccc2O[C@@H]1CN(C)Cc1ccccc1	20
C[C@H]1CN([C@@H](C)CO)C(=O)c2cccc(NC(=O)Nc3ccc(F)cc3)c2O[C@H]1CN(C)S(=O)(=O)c1ccc(F)cc1	20
CNC[C@@H]1Oc2c(NC(=O)Nc3ccccc3)cccc2C(=O)N([C@H](C)CO)C[C@H]1C	10
O=C(O)CCNC(=O)c1ccco1	19
Cc1noc(C)c1S(=O)(=O)Nc1cccc2c1O[C@H](CN(C)CC1CCCCC1)[C@H](C)CN([C@H](C)CO)C2=O	-12
COc1ccc(OC)c(S(=O)(=O)N(C)CC(=O)N2CCOCC2)c1	-16
COc1ccc(NC(=O)Nc2cccc3c2O[C@H](CN(C)C)[C@@H](C)CN([C@@H](C)CO)C3=O)cc1	-15
Cc1cc(C)n2nc(SCC(=O)Nc3cccc(C(F)(F)F)c3)nc2n1	-13
C[C@@H]1CN([C@@H](C)CO)C(=O)c2cc(NC(=O)NC3CCCCC3)ccc2O[C@H]1CN(C)S(=O)(=O)c1cn(C)cn1	-7
C[C@H](CO)N1C[C@H](C)[C@H](CN(C)S(=O)(=O)c2ccc(Cl)cc2)Oc2c(NC(=O)Nc3ccc(F)cc3)cccc2C1=O	93*
CCCC(=O)c1ccc(OCc2nc3ccccc3[nH]2)cc1	40
Cc1ccc(S(=O)(=O)N(C)C[C@H]2Oc3ccc(NC(=O)Cc4cn(C)c5ccccc45)cc3C(=O)N([C@H](C)CO)C[C@@H]2C)cc1	-2
Cc1cc2c(=O)n(Cc3ccco3)c(SCC(=O)N3CCc4ccccc43)nc2s1	21
CS(=O)(=O)c1scc(-c2cccs2)c1C#N	38
Cc1ccc(S(=O)(=O)Nc2ccc3c(c2)CC(=O)N([C@@H](C)CO)C[C@@H](C)[C@@H](CN(C)Cc2ccc(-c4ccccc4)cc2)O3)cc1	124*
C[C@@H]1CCCCO[C@H](CN(C)C)[C@@H](C)CN([C@H](C)CO)C(=O)c2cc(NS(=O)(=O)c3ccc(F)cc3)ccc2O1	13
O=C(Cn1ccc([N+](=O)[O-])n1)Nc1cc(Cl)cc(Cl)c1	8
COc1ccc([N+](=O)[O-])cc1NC(=O)CN(C)S(=O)(=O)c1ccc(C)cc1	9
S=c1nc[nH]c2c1nnn2Cc1ccccc1Cl	-5
Cc1noc(C)c1NC(=O)Nc1ccc2c(c1)CC(=O)N([C@@H](C)CO)C[C@@H](C)[C@@H](CN(C)S(=O)(=O)c1ccc(F)cc1)O2	13
CCOC(=O)c1cnc2c(c(C)nn2C)c1Sc1nnc(SC)s1	125*
Cc1noc(C)c1NC(=O)N(C)C[C@@H]1Oc2c(NC(=O)C3CCOCC3)cccc2C(=O)N([C@@H](C)CO)C[C@H]1C	12
Cc1noc(C)c1S(=O)(=O)Nc1cccc2c1O[C@H](CN(C)C(=O)Nc1ccc3c(c1)OCO3)[C@H](C)CN([C@@H](C)CO)C2=O	-11
CC1(CO)CC(=O)CC2(C)C3=C(CCC12)C(=O)OC3 (configuration not stated)	27
C[C@@H]1CN([C@@H](C)CO)C(=O)c2cccc(NC(=O)Nc3ccccc3)c2O[C@@H]1CN(C)CC1CCCCC1	7
CNC[C@H]1Oc2ccc(N(C)C)cc2CC(=O)N([C@@H](C)CO)C[C@@H]1C	-11
C[C@H](CO)N1C[C@H](C)[C@H](CN(C)C(=O)NC2CCCCC2)Oc2c(NS(=O)(=O)c3ccccc3)cccc2C1=O	3
COc1ccc(S(=O)(=O)Nc2ccc3c(c2)CC(=O)N([C@H](C)CO)C[C@@H](C)[C@@H](CN(C)Cc2ccncc2)O3)cc1	11
COc1c(Br)cc2c(cc(C)n2-c2ccccc2)c1OCC(O)CNC(C)C (configuration not stated)	71
C[C@@H]1CN([C@H](C)CO)C(=O)c2cccc(NC(=O)Nc3ccc(F)cc3)c2O[C@H]1CN(C)Cc1ccc(Oc2ccccc2)cc1	64
COc1ccccc1NC(=O)COc1ccc2oc3c(c2c1)CCCC3	36
COc1ncnc(OC)c1C	0
C[C@@H]1CN([C@H](C)CO)C(=O)c2cc(NC(=O)Nc3ccc4c(c3)OCO4)ccc2O[C@@H]1CN(C)Cc1ccc(C(=O)O)cc1	27
CC(=O)OC[C@H]1O[C@@H](Oc2c(-c3ccc(O)cc3)oc3cc(O)cc(O)c3c2=O)[C@H](O)[C@@H](O)[C@@H]1O	28
C[C@@H]1CN([C@@H](C)CO)C(=O)Cc2cc(NC(=O)Nc3ccc(F)cc3)ccc2O[C@@H]1CN(C)Cc1ccc2c(c1)OCO2	44
C[C@@H]1CN([C@@H](C)CO)C(=O)c2cccc(NC(=O)C3CCCCC3)c2O[C@@H]1CN(C)Cc1ccc(-c2ccccc2)cc1	77
Cc1ccc(S(=O)(=O)Nc2ccc3c(c2)CC(=O)N([C@@H](C)CO)C[C@@H](C)[C@@H](CN(C)S(=O)(=O)c2cccs2)O3)cc1	30
C[C@@H]1CN([C@H](C)CO)C(=O)Cc2cc(NS(=O)(=O)c3cccs3)ccc2O[C@@H]1CN(C)S(=O)(=O)c1cn(C)cn1	13
C[C@@H]1CN([C@@H](C)CO)C(=O)Cc2cc(NC(=O)Nc3cccc4ccccc34)ccc2O[C@@H]1CN(C)C(=O)NC1CCCCC1	35
C[C@@H]1CN([C@@H](C)CO)C(=O)c2cc(NC(=O)CCN3CCOCC3)ccc2O[C@@H]1CN(C)S(=O)(=O)c1ccc(F)cc1	21
COCC(C)NCc1ccc(OC)c(OC)c1OC (configuration not stated)	26
C=C1CCC(C)C(C)(CCC2=CCOC2=O)C/C=C\C=C/1C(=O)O (configuration not stated)	20
CC(C)(C)NS(=O)(=O)c1ccc(OCC(=O)Nc2ccc(F)c(Cl)c2)cc1	-7
CSc1scc2c1-c1nc(SCC(=O)C(C)(C)C)ncc1CC2	67

Remaining list, next part:
SMILES	NOMO-1 viab
CCc1cc2c(SCC(=O)Nc3cccc(C)c3)ncnc2s1	37
C[C@@H]1CN([C@H](C)CO)C(=O)Cc2cc(NC(=O)Cc3ccccc3)ccc2O[C@H]1CN(C)Cc1ccc(Oc2ccccc2)cc1	14
COc1cc(O)c(CC=C(C)C)cc1C(=O)/C=C/c1ccc(O)c(CC=C(C)C)c1	86*
CCc1ccc(CCC(=O)Nc2ccc(OC)cc2)o1	39
CC1(C)CC(CC(=O)N2CCOCC2)(c2ccccc2)CCO1 (configuration not stated)	-1
C[C@@H]1CN([C@H](C)CO)C(=O)c2cc(N(C)C)ccc2O[C@H]1CN(C)C(=O)Nc1ccc(C(F)(F)F)cc1	7
C[C@H]1CN([C@@H](C)CO)C(=O)c2cc(NC(=O)CCCCCC(=O)Nc3ccccc3N)ccc2O[C@H]1CN(C)C(=O)Nc1ccccc1	0
C[C@H]1CN([C@@H](C)CO)C(=O)c2cccc(NC(=O)Nc3ccc(F)cc3)c2O[C@H]1CN(C)S(C)(=O)=O	6
COc1ccccc1NC(=O)CN1C(=O)NC(C)(C)C1=O	-4
Cc1cc(C)cc(NC(=O)Cn2cc(C(=O)c3cccs3)c3ccccc32)c1	50
CC(C)(C)c1cn2c3ccccc3nc2n1CCN1CCOCC1	4
COC(=O)c1c(NC(=S)Nc2nc(C)cc(C)n2)sc2c1CCC(C)C2 (configuration not stated)	27
C[C@H](CO)N1C[C@H](C)[C@H](CN(C)S(=O)(=O)c2cccs2)Oc2c(NC(=O)Nc3ccc4c(c3)OCO4)cccc2C1=O	51
Cc1noc(C)c1S(=O)(=O)Nc1ccc2c(c1)CC(=O)N([C@@H](C)CO)C[C@@H](C)[C@@H](CN(C)S(=O)(=O)c1cn(C)cn1)O2	11
CCOC(=O)c1c(NC(=O)Cn2cnc3sc(C)c(C)c3c2=O)sc(C)c1C	14
Nc1cc(C(F)(F)F)ccc1Oc1ccc(C2CCCCC2)cc1	113*
CCOC(=O)c1c(C)n(O)c2ccc3nonc3c12	5
Cc1ccc(S(=O)(=O)N(C)C[C@H]2Oc3ccc(NS(=O)(=O)c4ccccc4)cc3C(=O)N([C@@H](C)CO)C[C@@H]2C)cc1	-1
Cc1noc(C)c1S(=O)(=O)Nc1cccc2c1O[C@@H](CN(C)C)[C@@H](C)CN([C@H](C)CO)C2=O	9
C[C@@H]1CN([C@H](C)CO)C(=O)c2cc(NC(=O)c3ccncc3)ccc2O[C@H]1CN(C)C(=O)NC1CCCCC1	-22
C[C@@H]1CCCCO[C@@H](CN(C)S(=O)(=O)c2cccs2)[C@@H](C)CN([C@H](C)CO)C(=O)c2cc(NC(=O)Nc3ccc4c(c3)OCO4)ccc2O1	22
O=C1CC(c2ccccc2)N=C(SCC(=O)Nc2ccc(Cl)cc2)N1 (configuration not stated)	18
C[C@@H]1CN([C@@H](C)CO)C(=O)Cc2cc(NS(=O)(=O)c3ccccc3)ccc2O[C@@H]1CN(C)C(=O)Nc1ccc(C(F)(F)F)cc1	22
CCn1c(SCC(=O)N2c3ccccc3Sc3ccccc32)nnc1-c1cc(OC)cc(OC)c1	11
Cn1c(SCC(=O)N2CCN(Cc3ccccc3)CC2)nnc1-c1ccncc1	12
N#CCCN(Cc1ccccc1)C(=O)c1ccccc1[N+](=O)[O-]	3
O=C(C[n+]1ccccc1)c1cc2ccccc2oc1=O	46
Cc1cc(C(=O)Nc2cccc3c2O[C@@H](CN(C)S(=O)(=O)c2ccc(Cl)cc2)[C@H](C)CN([C@@H](C)CO)C3=O)n(C)n1	12
C[C@H](CO)N1C[C@H](C)[C@H](CN(C)C(=O)Nc2ccccc2)Oc2ccc(NC(=O)c3ccncc3)cc2C1=O	1
COc1ccc(S(=O)(=O)N(C)C[C@@H]2Oc3c(NC(=O)C4CC4)cccc3C(=O)N([C@H](C)CO)C[C@H]2C)cc1	-1
COc1ccc(NC(=O)N(C)C[C@H]2Oc3ccc(NS(=O)(=O)c4c(C)noc4C)cc3CC(=O)N([C@@H](C)CO)C[C@@H]2C)cc1	3
COc1ccc(NC(=O)CSC2=NC(c3ccccc3)CC(=O)N2)cc1Br (configuration not stated)	27
C[C@@H]1CN([C@@H](C)CO)C(=O)c2cc(NC(=O)Cn3cnnn3)ccc2O[C@H]1CN(C)S(=O)(=O)c1ccc(F)cc1	10
Cc1noc(C)c1NC(=O)Nc1ccc2c(c1)CC(=O)N([C@@H](C)CO)C[C@@H](C)[C@@H](CN(C)Cc1ccc(C(F)(F)F)cc1)O2	28
COc1cccc(CN2CCN(Cc3cccc([N+](=O)[O-])c3)CC2)c1OC	2
Cc1noc(C)c1NC(=O)Nc1cccc2c1O[C@H](CN(C)CC1CCCCC1)[C@H](C)CN([C@H](C)CO)C2=O	13
C[C@H](CO)N1C[C@H](C)[C@@H](CN(C)CC2CCCCC2)Oc2ccc(NC(=O)Nc3ccc4c(c3)OCO4)cc2C1=O	25
COc1ccc(NC(=O)Nc2cccc3c2O[C@@H](CN(C)Cc2ccccc2)[C@H](C)CN([C@H](C)CO)C3=O)cc1	117*
COc1ccc(S(=O)(=O)N(C)C[C@H]2Oc3c(NC(=O)c4nc5ccccc5s4)cccc3C(=O)N([C@H](C)CO)C[C@@H]2C)cc1	54
COc1ccc(Cl)cc1NC(=S)NCCc1c[nH]c2ccccc12	4
C[C@H](CO)N1C[C@H](C)[C@H](CN(C)CC2CCCCC2)Oc2ccc(NC(=O)CCCN(C)C)cc2C1=O	-8
O=C(NCc1cccnc1)c1ccc2c(c1)C(=O)N(Cc1cccnc1)C2=O	6

Arranged by SMILES length (lowest first): part of the list above
SMILES	NOMO-1 viab
COc1ccc(Cl)cc1NC(=S)NCCc1c[nH]c2ccccc12	4
COc1ccc(NC(=O)CSC2=NC(c3ccccc3)CC(=O)N2)cc1Br (configuration not stated)	27
O=C(NCc1cccnc1)c1ccc2c(c1)C(=O)N(Cc1cccnc1)C2=O	6
COc1cccc(CN2CCN(Cc3cccc([N+](=O)[O-])c3)CC2)c1OC	2
C[C@H](CO)N1C[C@H](C)[C@H](CN(C)CC2CCCCC2)Oc2ccc(NC(=O)CCCN(C)C)cc2C1=O	-8
C[C@H](CO)N1C[C@H](C)[C@H](CN(C)C(=O)Nc2ccccc2)Oc2ccc(NC(=O)c3ccncc3)cc2C1=O	1
COc1ccc(NC(=O)Nc2cccc3c2O[C@@H](CN(C)Cc2ccccc2)[C@H](C)CN([C@H](C)CO)C3=O)cc1	117*
C[C@H](CO)N1C[C@H](C)[C@@H](CN(C)CC2CCCCC2)Oc2ccc(NC(=O)Nc3ccc4c(c3)OCO4)cc2C1=O	25
C[C@@H]1CN([C@@H](C)CO)C(=O)c2cc(NC(=O)Cn3cnnn3)ccc2O[C@H]1CN(C)S(=O)(=O)c1ccc(F)cc1	10
COc1ccc(S(=O)(=O)N(C)C[C@H]2Oc3c(NC(=O)c4nc5ccccc5s4)cccc3C(=O)N([C@H](C)CO)C[C@@H]2C)cc1	54
Cc1cc(C(=O)Nc2cccc3c2O[C@@H](CN(C)S(=O)(=O)c2ccc(Cl)cc2)[C@H](C)CN([C@@H](C)CO)C3=O)n(C)n1	12
Cc1noc(C)c1NC(=O)Nc1ccc2c(c1)CC(=O)N([C@@H](C)CO)C[C@@H](C)[C@@H](CN(C)Cc1ccc(C(F)(F)F)cc1)O2	28

Some of the compounds tested; the hit share may differ from the screen's.
